RGS16-Gao HTS – modulates binding between human RGS16 and Galphao; binding response (% of control), % at 10 µM; O15492+P09471; 0.38% of 220,000 active; bead-based flow cytometry RGS16-Galphao binding, fluorescence; actives lie on both sides;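 active = below 25% or above 175%, edge rows of some plates excepted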;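 also: Galphao activated by GDP with aluminum fluoride before binding; 100% = wells without compound and 0% = beads without RGS; some results beyond the cut were filed as inactive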
Target sequence (O15492 whole entry, looked up): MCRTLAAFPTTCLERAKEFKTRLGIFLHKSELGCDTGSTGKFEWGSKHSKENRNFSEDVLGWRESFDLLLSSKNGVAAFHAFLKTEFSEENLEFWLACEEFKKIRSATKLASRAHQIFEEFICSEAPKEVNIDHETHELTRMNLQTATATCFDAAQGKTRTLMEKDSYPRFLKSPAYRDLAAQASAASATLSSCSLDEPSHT
Target sequence (P09471 whole entry, looked up): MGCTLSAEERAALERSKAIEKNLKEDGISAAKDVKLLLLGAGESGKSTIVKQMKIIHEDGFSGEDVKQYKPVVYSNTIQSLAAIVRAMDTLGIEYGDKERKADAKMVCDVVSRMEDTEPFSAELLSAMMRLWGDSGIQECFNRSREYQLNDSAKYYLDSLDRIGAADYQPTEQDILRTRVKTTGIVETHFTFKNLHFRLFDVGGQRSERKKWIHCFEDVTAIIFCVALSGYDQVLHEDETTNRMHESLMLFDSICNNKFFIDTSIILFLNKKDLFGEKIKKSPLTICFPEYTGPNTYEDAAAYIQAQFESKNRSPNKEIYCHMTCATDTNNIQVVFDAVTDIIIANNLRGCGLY
HSV replic up – HSV replication enhancement; HSV replication augmentation in cells, fold increase; maximum fold increase; 0.005% of 220,000 active;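 active = peak rise of 1.5-fold or more in the series; inconclusive = self-fluorescent or not available for retest; tested in PC3 cells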;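 also: first round at 10 µM; read as green reporter fluorescence; hits show the peak of a series up to 25 µM; 1 = signal of infected wells without compound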
GALR2 agonist – activates the human galanin receptor 2 | GALR2-expressing cells, agonist activation read-out | 0.48% of 140,000 active | O43603 | activation, %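 (tested at 5 µM)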;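 active = above mean plus 3 SD of all compounds, about 5% in these data, not always enough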;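 also: 0% = vehicle buffer wells and 100% = reference agonist at full effect; tested in CHO reporter cells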
Insulin prom inh – TRM-6 insulin promoter activity inhibition; 0.9% of 130,000 active; TRM-6 cells (human fetal islet line), insulin promoter-eGFP reporter, imaging; reporter expression induced with tamoxifen; inhibition, % at 2 µM;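 active = inhibition above the mean plus 3 SD, with well images judged a real hit on visual review, cut at about 60% in these data, passing the limit was not always enough; inconclusive = inhibition over the cutoff but images rejected on review; inactive = inhibition not above the cutoff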
PKD1 kinase inh – PKD1 (human) kinase inhibition; PKD1 kinase fluorescence polarization assay; inhibition, %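 (about 10 µM by stock and volumes)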; 0.056% of 200,000 active; AID 797;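 active = inhibition of 50% or more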;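 also: controls were vehicle for no effect and a reference inhibitor for full effect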
Insulin prom inh cell count – also measured in Insulin prom inh; calls as there; normalized cell count, %; measured here: cell count, toxicity; reference of the scale not given here;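 cells exposed to compound for 48 h; stained nuclei by imaging scaled within each plate; lower means fewer cells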
HSV replic up primary fold – recorded beside HSV replic up, whose call it bears; fold increase; compound at 10 µM; measured here: primary screen fold increase 10 uM; tested in PC3 cells;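 GFP signal in the first replicate; 1 = infected wells without compound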
Numbers without * were called inactive; i = inactive; ? = inconclusive; nt = no result given. Outcome played no part in choosing rows; any-hit rate near 1.3%.

SMILES	RGS16-Gao HTS	HSV replic up	HSV replic up primary fold	GALR2 agonist	Insulin prom inh	Insulin prom inh cell count	PKD1 kinase inh
Nn1c(C2CCCCC2)nc2ccccc2c1=O	109	i	1	nt	nt	nt	nt
COc1ccc(C2=NNC(c3cccnc3)=Nc3ccc(OC)cc32)cc1	99	i	0.81	nt	nt	nt	-1
COCc1cc(C)nc2sc(C(=O)Nc3nccs3)c(N)c12	98	i	0.8	-2.5	nt	nt	-5
O=C(NCCN1C(=O)C2C3C=CC(C3)C2C1=O)Nc1ccccc1 (stereo not drawn)	107	i	1.3	-2.0	nt	nt	1
CCCSc1nc2ccccc2n1CC(=O)O	98	i	0.93	nt	nt	nt	4
O=C1c2ccccc2C(=O)N1CC1c2ccccc2CCN1C(=O)N1CCOCC1 (stereo not drawn)	98	i	0.9	-1.6	-31	114	-3
CC1CCCCN1CC(=O)NC(c1ccccc1)c1ccccc1 (stereo not drawn)	109	i	1	nt	nt	nt	1
CC(=O)OC(C(=O)N1CCOCC1)c1c(F)cccc1F (stereo not drawn)	97	i	1.1	nt	nt	nt	-8
Cc1ccc(C(=O)NNC(=O)C(C)Sc2nc(N)cc(N)n2)cc1 (stereo not drawn)	106	i	0.89	-1.8	nt	nt	-13
O=C1c2ccccc2NC(c2ccc(Cl)cc2Cl)N1O (stereo not drawn)	99	?	nt	-1.6	-25	153	-20
Cc1ccc2nc(-c3ccncc3)c(NC3CCCC3)n2c1	91	i	0.93	nt	-75	76	5
CC1CCN(c2ccc(C(=O)N3CCOCC3)cc2[N+](=O)[O-])CC1	104	i	1	-1.9	-10	112	-5
COc1cccc(NC(=O)CSc2nc3c(oc4ccccc43)c(=O)[nH]2)c1	96	i	0.88	0.1	16	183	-7
CC(C)C1N=C2c3ccccc3N=C(SCC#N)N2C1=O (stereo not drawn)	96	i	0.81	-0.6	20	70	-5
O=C(C1CCCCC1)N1CCc2[nH]c3ccc(F)cc3c2C1	98	i	0.97	nt	nt	nt	nt
COCCCn1c(-c2ccccc2)nc2ccccc2c1=O	98	i	0.96	-1.9	nt	nt	-11
Nc1c(N2CCCC2)c2ccccc2oc1=O	103	i	0.86	nt	-33	60	-1
C[C@H](CO)NC(=O)[C@H](C)[C@H]1C[C@]1(C)[C@H](NC(=O)OCc1ccccc1)c1ccccc1	110	i	0.99	0.2	0	134	6
O=S(=O)(N/N=C\C=C\c1ccccc1)c1ccc(Br)cc1	105	i	0.96	-2.0	7	129	-3
O=C(Nc1nnc(-c2ccco2)o1)c1ccc2ccccc2c1	112	i	0.98	-0.5	-4	91	1
Cc1cc(C(=O)OCC(=O)N2CCOCC2)ccc1[N+](=O)[O-]	105	i	0.94	nt	33	119	-2
COC(=O)c1c(NC(=O)CSc2ncnc3[nH]ncc23)sc2c1CCC2	100	i	0.94	nt	36	113	-5
O=[N+]([O-])c1cccc(S(=O)(=O)c2cccc([N+](=O)[O-])c2)c1	99	i	0.89	nt	nt	nt	-5
Cc1cc(NS(=O)(=O)c2ccc(NC(=O)CSc3nnc(-c4ccco4)n3Cc3ccco3)cc2)nc(C)n1	106	i	1	-1.3	7	89	-9
CC(=O)Nc1ccccc1OC(C)C(=O)NC(C)c1ccc(F)cc1 (stereo not drawn)	108	i	1	-0.7	-79	1	-6
COc1ccc(CN2CCN(C(=O)c3ccco3)CC2)cc1OC	99	i	0.88	nt	nt	nt	-5
Cc1ccc(C)n1NC(=O)c1ccccc1O	91	i	1.1	-1.5	11	79	-1
C=C(C)CSc1nc(C)c(Cc2ccccc2)c(=O)[nH]1	97	i	0.92	-4.2	-9	324	-7
Cc1ccc(-n2c(-c3ccncc3)nnc2-c2cccs2)cc1	nt	i	1	-1.6	-3	111	-4
CCOC(=O)Cc1nnc(NC(=O)CSc2nncn2C)s1	98	i	1.1	-4.2	-47	83	-9
CNc1nc(-c2ccc3c(c2)CCN3C(=O)c2ccc(F)cc2)cs1	109	i	0.95	nt	-13	86	-1
CCS(=O)(=O)NCCCc1ccccc1	100	i	1	-0.1	0	104	-5
Cc1cc(C)c(S(=O)(=O)N2CCCC(C(=O)NCCC3=CCCCC3)C2)c(C)c1 (stereo not drawn)	102	i	1.1	-1.5	46	110	-14
Cc1ccc(S(=O)(=O)Nn2c(O)c(C=C3N=c4ccccc4=N3)sc2=S)cc1	103	i	1.1	nt	nt	nt	nt
O=c1oc2ccccc2c2[nH]ccc12	106	i	1.1	nt	17	95	6
C=CCSc1n[nH]c(=O)n1-c1cccc(C(F)(F)F)c1	97	i	1	nt	nt	nt	nt
O=C(/C=C/c1ccc(O)c(O)c1)OC1C(O)CC(OC(=O)/C=C/c2ccc(O)c(O)c2)(C(=O)O)CC1O (stereo not drawn)	52	i	0.95	nt	nt	nt	nt
COC(=O)c1ccc(CSc2nc(N)cc(N)n2)cc1	107	i	0.85	-0.4	7	106	3
Nc1nc(NCc2ccc(Cl)cc2)nc(NCCO)c1[N+](=O)[O-]	96	i	1.1	nt	nt	nt	nt
Cc1cc(/C=C2/C(=O)N(C)C(=S)N2C)ccc1N1CCCC1	118	?	nt	nt	-376	129	-1
CCn1c(N)c(Br)c(=O)[nH]c1=O	99	i	1.1	nt	nt	nt	6
Cc1cc(C(=O)COC(=O)c2ccc3c(c2)OCO3)c(C)n1CC1CCCO1 (stereo not drawn)	97	i	0.93	nt	-53	141	3
O=C1N=C(N2CCOCC2)S/C1=C\c1ccc(-c2ccccc2Cl)o1	98	i	0.97	1.0	nt	nt	2
COc1ccc(NC(=O)C2=C(C)NC(=O)NC2c2cccc(OC)c2OC)c(OC)c1 (stereo not drawn)	106	i	0.83	-0.4	32	102	-3
COC(=O)c1c(C)[nH]c(C(=O)OCC(=O)N2c3ccccc3NC(=O)C2(C)C)c1C	101	i	0.87	-0.3	-53	142	-17
CN(C)S(=O)(=O)c1cccc(C(=O)Nc2cc(Cl)cc(Cl)c2)c1	104	i	0.81	-1.0	-7	98	2
Fc1ccc2nc(Nc3nc4cc5c(cc4s3)OCCO5)sc2c1	106	i	0.81	0.7	-64	107	-5
Cc1ccc(-c2nnc3sc(C4COc5ccccc5O4)nn23)cc1 (stereo not drawn)	99	i	0.9	-0.9	nt	nt	-16
Cc1ccc(Nc2nc(NCc3ccco3)c3ccccc3n2)cc1	98	i	0.64	nt	nt	nt	-8
NNC(=O)c1ccc(N2CCCCCC2)c([N+](=O)[O-])c1	100	i	0.86	nt	nt	nt	3

(listing goes on)
SMILES	RGS16-Gao HTS	HSV replic up	HSV replic up primary fold	GALR2 agonist	Insulin prom inh	Insulin prom inh cell count	PKD1 kinase inh
CCOC(=O)NC(=O)C(/C=N/c1sccc1C(=O)OC)=C(\C)O	99	i	2	nt	nt	nt	-4
CC(=O)c1ccc(N2CCN(C(=O)COc3ccccc3F)CC2)c(F)c1	103	i	0.92	-0.3	19	158	-4
COc1cccc(-c2nnc(SC(C(=O)c3c[nH]c4ccccc34)c3ccccc3)n2C)c1 (stereo not drawn)	98	i	0.78	0.2	-14	101	-9
O=C(N/N=C/c1ccc(N2CCOCC2)o1)c1cccc(C(F)(F)F)c1	61	i	0.92	0.0	-6	89	-7
Cc1cc(C)c2nc(C(F)(F)F)nc(NCCCN3CCCC3=O)c2c1	89	i	1	-0.8	62	117	-8
CCCCn1cnc2cc(NCc3ccncc3)ccc21	102	i	0.94	-2.4	28	70	-8
CC(=O)OC1=C(C#N)Cn2ccc3cccc1c32	150	i	0.89	-1.0	nt	nt	-10
CCOC(=O)N1CCN(C(=O)c2ccc(N(C)S(C)(=O)=O)cc2)CC1	103	i	0.96	-2.0	-76	63	0
C=COC(=O)CSc1nc(-c2cccs2)ccc1C#N	59	i	1.1	-3.6	nt	nt	-2
c1ccc2sc(Cc3nnc4n3CCCCC4)nc2c1	106	i	0.94	-1.3	-25	157	-12
CCc1nnc2n1N=C(c1ccc(-c3cc(Cl)ccc3Cl)o1)CS2	104	i	0.96	0.6	nt	nt	-14
COC(=O)c1cc(NC(=S)Nc2cc(Cl)cc(Cl)c2)cc(C(=O)OC)c1	99	i	0.99	-1.4	0	119	10
CCC(=O)N1c2ccccc2-c2nnc(SC)nc2OC1c1ccc(OC)c(OC)c1 (stereo not drawn)	100	i	0.83	-1.4	nt	nt	-4

Filtered by structure: the entries above containing an NH in an aromatic ring (nine)
SMILES	RGS16-Gao HTS	HSV replic up	HSV replic up primary fold	GALR2 agonist	Insulin prom inh	Insulin prom inh cell count	PKD1 kinase inh
COc1cccc(NC(=O)CSc2nc3c(oc4ccccc43)c(=O)[nH]2)c1	96	i	0.88	0.1	16	183	-7
O=C(C1CCCCC1)N1CCc2[nH]c3ccc(F)cc3c2C1	98	i	0.97	nt	nt	nt	nt
COC(=O)c1c(NC(=O)CSc2ncnc3[nH]ncc23)sc2c1CCC2	100	i	0.94	nt	36	113	-5
C=C(C)CSc1nc(C)c(Cc2ccccc2)c(=O)[nH]1	97	i	0.92	-4.2	-9	324	-7
O=c1oc2ccccc2c2[nH]ccc12	106	i	1.1	nt	17	95	6
C=CCSc1n[nH]c(=O)n1-c1cccc(C(F)(F)F)c1	97	i	1	nt	nt	nt	nt
CCn1c(N)c(Br)c(=O)[nH]c1=O	99	i	1.1	nt	nt	nt	6
COC(=O)c1c(C)[nH]c(C(=O)OCC(=O)N2c3ccccc3NC(=O)C2(C)C)c1C	101	i	0.87	-0.3	-53	142	-17
COc1cccc(-c2nnc(SC(C(=O)c3c[nH]c4ccccc34)c3ccccc3)n2C)c1 (stereo not drawn)	98	i	0.78	0.2	-14	101	-9

Screening results deposited in PubChem by several laboratories.
